CDC25B-CDK2 inh: primary biochemical HTRF screen for blockers of M-phase inducer phosphatase 2 binding to CDK2/cyclin A | HTRF CDC25B-CDK2/CyclinA binding, anti-His/anti-Flag; hits give high values | z-score (no concentration beside the values) | 0.72% of 94,000 active | AID 1259370, 2018;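 further: score is relative to mean and SD of negative controls; strong numbers were not always called active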
HIV TAR-Tat: TAR RNA-Tat peptide displacers, HIV-1, primary screen, biochemical, FRET, FAM/TAMRA-labeled Tat; HIV-1 TAR RNA, Tat peptide displacement FRET; hits give high values; z-score (test concentration not listed); 0.6% of 100,000 active;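 further: score is relative to mean and SD of negative controls; some compounds called inactive have numbers as strong as hits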
An asterisk follows results filed as active.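 How the source made its calls: active means z-score from 3 up in half or more of its runs; inactive means the rest.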

For COc1cc2cc(C(=O)N3CCN(Cc4ccc5c(c4)OCO5)CC3)c(=O)oc2cc1OC the results were CDC25B-CDK2 inh -1.6.
`Cc1csc2nc(CN3CCN(c4ncccn4)CC3)cc(=O)n12` gave HIV TAR-Tat 0.56.
Screening O=S1(=O)CCN(Cc2ccc(-n3cccn3)cc2)CC1 returned CDC25B-CDK2 inh -1.3.
Screening O=C(CCSCCc1ccccn1)Nc1cc(F)ccc1F returned HIV TAR-Tat 1.9.
For N#CC1=C(N)Oc2n[nH]c(-c3ccccc3)c2C1c1ccccc1Cl (stereo not drawn) the results were CDC25B-CDK2 inh -1.9 and HIV TAR-Tat 0.32.
`COc1cccc(OCC(=O)Nc2cc(N3CCCS3(=O)=O)ccc2OC)c1` gave HIV TAR-Tat 0.63.
`COCCCn1c2c(c(=O)[nH]c1=O)C(c1ccc(OC)cc1)C1=C(N2)c2ccccc2C1=O` (stereo not drawn) gave CDC25B-CDK2 inh 0.05 and HIV TAR-Tat 0.42.
For N#CC(C#N)=CN1CCCCC1 the results were CDC25B-CDK2 inh -0.83.
For CC(=O)NCCc1cnc[nH]1 the results were CDC25B-CDK2 inh -2.6.
O=C(CCc1nc2sc3c(c2c(=O)[nH]1)CCCCC3)NCCN1CCOCC1 was read as HIV TAR-Tat 5.5*.
For Cc1ccc(OCc2cc(=O)n3c(-c4ccccc4)csc3n2)cc1 the results were CDC25B-CDK2 inh -1.3 and HIV TAR-Tat 0.63.
Cc1ccc(-c2nc(=S)c3c([nH]2)Oc2cc(O)ccc2C3)cc1 was read as CDC25B-CDK2 inh 0.11 and HIV TAR-Tat -7.9.
Screening COc1ccc(-c2noc(-c3nnn(-c4cc(Cl)ccc4C)c3C)n2)cc1OC returned HIV TAR-Tat 1.1.
O=C(O)c1c[nH]c2c(C(F)(F)F)cccc2c1=O was read as CDC25B-CDK2 inh -0.32.
For Cc1nn(-c2ccc(N3CCCC3)nn2)c(C)c1CCC(=O)N1CCOCC1 the results were HIV TAR-Tat -0.53.
`NC(=S)c1ccc2c(c1)OCCO2` gave CDC25B-CDK2 inh -0.82.
Screening O=C(C1c2ccccc2Oc2ccccc21)N1CCc2ccccc21 returned CDC25B-CDK2 inh 0.34.
O=C(NC1CCCCC1)c1nnc(Cc2ccc3c(c2)OCO3)o1 was read as CDC25B-CDK2 inh -1.2 and HIV TAR-Tat 0.42.
Screening O=C(c1cncc(Br)c1)N1CCCc2ccccc21 returned CDC25B-CDK2 inh -1 and HIV TAR-Tat -1.2.
CCC(=O)n1c2c(c3ccccc31)Nc1ccccc1N2 was read as CDC25B-CDK2 inh 0.2.
Screening CCCNC(=O)Cn1c(C(=O)OC)ccc1-c1ccco1 returned CDC25B-CDK2 inh -0.35 and HIV TAR-Tat -0.8.
For NC(=O)c1c(NC(=O)C2CCCCC2)sc2c1CCC2 the results were HIV TAR-Tat 3.
For CCC1CN(C(=O)c2cc(S(=O)(=O)N3CCOCC3)cn2C)c2cc(Cl)ccc2O1 (stereo not drawn) the results were HIV TAR-Tat 0.72.
Screening CC1CCCCC1NC(=O)CN1C(=O)CSc2ccc(S(=O)(=O)N3CCCC3)cc21 (stereo not drawn) returned HIV TAR-Tat -0.97.
`CCOC(=O)c1cc(-c2ccc(S(=O)(=O)N3CCCC3)s2)on1` gave HIV TAR-Tat -1.3.
`O=S(=O)(c1ccccc1)n1nc(-c2ccco2)nc1NCc1ccc(Br)cc1` gave CDC25B-CDK2 inh 0.24 and HIV TAR-Tat -1.2.
Screening CCC(=O)N1CCc2cc(Br)cc(S(=O)(=O)N3CCC(C(=O)NC(C)C)CC3)c21 returned CDC25B-CDK2 inh -0.17 and HIV TAR-Tat -1.1.
COc1cc(NC(=O)C(C)SC2=Nc3ccccc3C3=NC(C)C(=O)N23)cc(OC)c1 (stereo not drawn) was read as HIV TAR-Tat -1.2.
Screening O=C(CN1C(=O)c2ccccc2S1(=O)=O)NCCSCc1c(F)cccc1Cl returned CDC25B-CDK2 inh -1.8 and HIV TAR-Tat -0.8.
Screening c1ccc(N(c2ccccc2)c2nc(-n3cnc4ccccc43)nc(-n3cnc4ccccc43)n2)cc1 returned CDC25B-CDK2 inh -2.5.
For CSc1ccc(C2C=C(C(=O)O)Nc3ncnn32)cc1 (stereo not drawn) the results were CDC25B-CDK2 inh -1.3 and HIV TAR-Tat 0.58.
O=C(CSc1cn(CC(=O)N2CCOCC2)c2ccccc12)N1CCOCC1 was read as HIV TAR-Tat -0.79.
For COc1ccc(C(=O)CSc2nc(-c3ccccc3)ccc2C#N)cc1 the results were CDC25B-CDK2 inh -5.1 and HIV TAR-Tat -2.
For Cc1ccc(CSc2ccc(-c3sc(C)nc3C)nn2)cc1 the results were HIV TAR-Tat 0.02.
`OC1(c2ccc(Cl)cc2)CCNCC1` gave CDC25B-CDK2 inh -2.5.
For Cc1cc2ccccc2n1-c1ccc(C(=O)N2CCN(C)CC2)s1 the results were HIV TAR-Tat 0.72.
`CC1=C(c2ccccc2)S(=O)(=O)N=C1Nc1cc(C)on1` gave CDC25B-CDK2 inh -1.6 and HIV TAR-Tat -1.4.
Screening COc1ccc(N2CCN(CC(O)COC3C4(C)CCC(C4)C3(C)C)CC2)cc1 (stereo not drawn) returned CDC25B-CDK2 inh -2.7 and HIV TAR-Tat -0.18.
Fc1ccc(Cn2cc3c(-c4ccccc4)nnc-3c3cc4c(cc32)OCO4)cc1 was read as CDC25B-CDK2 inh -0.93 and HIV TAR-Tat 0.03.
O=C(COCc1cc(-c2ccco2)on1)N1CCN(c2ccccc2)CC1 was read as HIV TAR-Tat 3.
For Cc1ncc(-c2ccc(C)c(S(=O)(=O)NCc3ccc(Cl)cc3)c2)o1 the results were HIV TAR-Tat 0.45.
`Cn1ncc2c(Nc3ccccc3)nc(NCCCO)nc21` gave HIV TAR-Tat 1.2.
CCn1c(C(=O)NCCN(C)C)c(N2CCCC2=O)c2cc(F)ccc21 was read as HIV TAR-Tat -0.26.
`CCOC(=O)CSc1nc2c(sc(=S)n2-c2ccc(OCC)cc2)c(=O)[nH]1` gave HIV TAR-Tat 1.3.
O=S(=O)(Nc1ccc(C2=NCCO2)cc1)c1ccc(Cl)cc1 was read as CDC25B-CDK2 inh -1.1.
For CC(C)=CCc1c2c(c(O)c3c(=O)c(O)c(-c4ccccc4)oc13)C=CC(C)(C)O2 the results were HIV TAR-Tat 1.6.
Screening Cc1ccccc1Nc1nc(-c2c(C)nc3ncccn23)cs1 returned CDC25B-CDK2 inh -1.8 and HIV TAR-Tat 1.
For CCOc1ccc(C2c3c(oc4ccc(C)cc4c3=O)C(=O)N2Cc2ccc3c(c2)OCO3)cc1OC (stereo not drawn) the results were CDC25B-CDK2 inh -1.2 and HIV TAR-Tat 0.1.

Arranged by count of non-hydrogen atoms (descending): 11 of the compounds above
For CCOc1ccc(C2c3c(oc4ccc(C)cc4c3=O)C(=O)N2Cc2ccc3c(c2)OCO3)cc1OC (stereo not drawn) the results were CDC25B-CDK2 inh -1.2 and HIV TAR-Tat 0.1.
Fc1ccc(Cn2cc3c(-c4ccccc4)nnc-3c3cc4c(cc32)OCO4)cc1 was read as CDC25B-CDK2 inh -0.93 and HIV TAR-Tat 0.03.
Screening COc1ccc(N2CCN(CC(O)COC3C4(C)CCC(C4)C3(C)C)CC2)cc1 (stereo not drawn) returned CDC25B-CDK2 inh -2.7 and HIV TAR-Tat -0.18.
O=C(COCc1cc(-c2ccco2)on1)N1CCN(c2ccccc2)CC1 was read as HIV TAR-Tat 3.
CCn1c(C(=O)NCCN(C)C)c(N2CCCC2=O)c2cc(F)ccc21 was read as HIV TAR-Tat -0.26.
For Cc1ncc(-c2ccc(C)c(S(=O)(=O)NCc3ccc(Cl)cc3)c2)o1 the results were HIV TAR-Tat 0.45.
For Cc1cc2ccccc2n1-c1ccc(C(=O)N2CCN(C)CC2)s1 the results were HIV TAR-Tat 0.72.
Screening Cc1ccccc1Nc1nc(-c2c(C)nc3ncccn23)cs1 returned CDC25B-CDK2 inh -1.8 and HIV TAR-Tat 1.
`Cn1ncc2c(Nc3ccccc3)nc(NCCCO)nc21` gave HIV TAR-Tat 1.2.
`CC1=C(c2ccccc2)S(=O)(=O)N=C1Nc1cc(C)on1` gave CDC25B-CDK2 inh -1.6 and HIV TAR-Tat -1.4.
`OC1(c2ccc(Cl)cc2)CCNCC1` gave CDC25B-CDK2 inh -2.5.

Other structures.
Cn1c(=O)n(CC(=O)O)c(=O)c2c1nc1n2CCCN1CCc1ccccc1 was read as CDC25B-CDK2 inh -1 and HIV TAR-Tat 1.
For Cc1ccc(NS(=O)(=O)c2ccc3c(c2)NC(=O)C(C)CS3)c(Br)c1 (stereo not drawn) the results were HIV TAR-Tat 0.45.
For COc1ccc(C2C(C#N)=C(N)Oc3n[nH]c(-c4ccccc4)c32)cc1 (stereo not drawn) the results were CDC25B-CDK2 inh -1.9 and HIV TAR-Tat 0.74.
For O=C(NCCCN1CCN(C2CCCCC2)CC1)C1CCCN1c1nnc(N2CCCC2=O)s1 (stereo not drawn) the results were HIV TAR-Tat 0.36.
`O=C(COc1ccc(F)cc1)OCc1cc(=O)n2ccsc2n1` gave HIV TAR-Tat 0.36.
`Clc1ccc2nc(NCc3ccc4c(c3)OCO4)c3nncn3c2c1` gave CDC25B-CDK2 inh -1.7 and HIV TAR-Tat 2.1.
`CC1(C)COC(c2cccn2Cc2ccccc2)=N1` gave HIV TAR-Tat 0.4.
For CCN(CC)c1ccc2c(c1)OC(N)=C(C#N)C2c1ccc(F)cc1 (stereo not drawn) the results were CDC25B-CDK2 inh -0.67 and HIV TAR-Tat -6.6.
For Cc1cccc(NS(=O)(=O)c2ccc3c(c2)NC(=O)CCS3)n1 the results were HIV TAR-Tat 2.1.
For CC1(C)CS(=O)(=O)N(c2ccc(C(=O)NC3CCCC3)cc2)C1=O the results were CDC25B-CDK2 inh -0.48 and HIV TAR-Tat 1.2.
`CC1CCN(C(=O)c2sc3nc(N4CCCC4)c4c(c3c2N)CCCC4)CC1` gave CDC25B-CDK2 inh -1.1 and HIV TAR-Tat 0.48.
`COc1ccc(N2C(=S)N(c3cccc(OC)c3)C3CS(=O)(=O)CC32)cc1` (stereo not drawn) gave CDC25B-CDK2 inh -0.94.
CCCNS(=O)(=O)c1ccc2c(c1)NC(=O)CC(=O)N2 was read as HIV TAR-Tat -1.2.
`c1ccc(-c2cc(N3CCCC3)n3cnnc3n2)cc1` gave CDC25B-CDK2 inh -1.1 and HIV TAR-Tat 0.16.
For O=C(Nc1nccs1)c1ccc(-c2noc(C3CCCC3)n2)cc1 the results were HIV TAR-Tat -0.83.
CN1C2CCC1CC(OC(c1ccccc1)c1ccccc1)C2 (stereo not drawn) was read as CDC25B-CDK2 inh -1.1 and HIV TAR-Tat 1.4.
For COCCCN1C(=O)C(=O)/C(=C(\O)c2ccccc2)C12C(=O)N(C)c1ccccc12 (stereo not drawn) the results were CDC25B-CDK2 inh 0.29 and HIV TAR-Tat 0.35.
Screening COC(=O)/C(C#N)=C1/CCSC1 returned CDC25B-CDK2 inh -0.43.
Screening Cc1csc(NC(=O)C2CCCN(S(=O)(=O)c3cccs3)C2)n1 (stereo not drawn) returned CDC25B-CDK2 inh 0.14.
CCOC(=O)C1=C(C)NC2=C(C(=O)CC(c3cccs3)C2)C1c1ccsc1 (stereo not drawn) was read as CDC25B-CDK2 inh -1.5 and HIV TAR-Tat 1.2.
For O=C(Nc1c(C(=O)Nc2ccc(Br)cc2)cnn1-c1ccccc1)c1ccco1 the results were CDC25B-CDK2 inh -1.4 and HIV TAR-Tat -2.2.
Screening CCOC(=O)CSc1nc(C)nc2c1oc1ccccc12 returned CDC25B-CDK2 inh 0.67 and HIV TAR-Tat 0.22.
For COc1ccc(OC)c(C2C(C#N)=C(N)Oc3n[nH]c(C)c32)c1 (stereo not drawn) the results were CDC25B-CDK2 inh -2.1 and HIV TAR-Tat 2.2.
Screening C#CCOc1ccc2c(c1)c(C(=O)OCC)c(C)n2C returned CDC25B-CDK2 inh -4.
For COc1ccc(-n2nc3ccc(N)cc3n2)cc1 the results were CDC25B-CDK2 inh -3.3 and HIV TAR-Tat 3.7.
Screening CCCC(=O)c1cn(CC(=O)OC)c2ccccc12 returned CDC25B-CDK2 inh 0.78 and HIV TAR-Tat 0.2.
For CCN1CCc2c(sc(-n3cccc3)c2CNC(=O)Nc2ccc(Br)cc2)C1 the results were HIV TAR-Tat -6.8.
For COc1ccc(C(C)=O)cc1COn1c(-c2ccccc2)nc2ccccc2c1=O the results were CDC25B-CDK2 inh -1.
For CCc1n(CC(O)COc2cccc(C)c2)c2ccccc2[n+]1C (stereo not drawn) the results were CDC25B-CDK2 inh -2.4 and HIV TAR-Tat 1.
O=C(Nc1ccc2c(c1)OCCO2)C1Cc2ccccc2N1C(=O)OCc1ccccc1 (stereo not drawn) was read as CDC25B-CDK2 inh 0.62.
Cn1c(SCC(=O)Nc2ccc(Br)cc2)ncc(C(=O)Nc2ccccc2)c1=O was read as HIV TAR-Tat 0.28.
For O=C(NC1CC1)c1nc(-c2ccncc2)no1 the results were HIV TAR-Tat 0.68.
CCCN1CCN(C(=O)c2sc(-n3cccc3)nc2C)CC1 was read as CDC25B-CDK2 inh -0.97 and HIV TAR-Tat -1.4.
For CCCc1cc(=O)[nH]c(Nc2ccccc2O)n1 the results were CDC25B-CDK2 inh -1.4 and HIV TAR-Tat -4.
`CC1CCN(C(=O)CN(C)S(=O)(=O)c2ccc3c(c2)C(C)(C)C(=O)N3C)CC1` gave HIV TAR-Tat 0.62.
CCOC(=O)c1[nH]c(C)c(C(=O)N(C)C2CCN(C)CC2)c1C was read as CDC25B-CDK2 inh -0.38.
COc1ccc(NC(=O)Cn2c(-c3ccccc3)cn(-c3ccc(C)cc3)c2=O)cc1 was read as CDC25B-CDK2 inh -1.3.
`O=C1SC(Nc2cccc3ccccc23)C(=O)N1c1ccccc1` (stereo not drawn) gave CDC25B-CDK2 inh -1.9.
Nc1nc(N2CCN(Cc3ccccc3)CC2)nc(N2CCN(Cc3ccccc3)CC2)c1[N+](=O)[O-] was read as HIV TAR-Tat 0.63.
COCC(=O)Nc1ccc2c(c1)C(=O)N(C)C1=NCCN12 was read as HIV TAR-Tat 0.31.

Assay outcomes as filed in PubChem.
